PABP FP inh: PABP poly(A) RNA binding inhibitors, primary screen, biochemical, fluorescence polarization, uHTS. Polyadenylate-binding protein 1 (Homo sapiens), P11940. inhibition, % at 35 µM. AID 2014, 2009. 1% of 290,000 active;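 active means 50% or more with normal probe brightness, or confirmed in later tests; inconclusive means above 50% with abnormal brightness, or retests that disagree; inactive means below 50% or failed in later tests; about a fifth of its hits are not listed in these tables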;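 further: calls also rest on retests at 20 µM and on dose response follow-up; controls were probe without protein and protein plus probe with vehicle; some compounds called inactive have numbers as strong as hits; many hits fall short of the cut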
Env fusion inh: inhibitors of HIV-1 Env-driven cell-cell fusion, primary screen, HeLa-JRFL effector, CEM21 target cells, luciferase. inhibition, % at 12.3 µM. 1.1% of 360,000 active;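 active means mean replicate inhibition score of at least 50 and every replicate individually at or above 50; inconclusive means only one of the two criteria met; inactive means mean below 50 and not all replicates reaching 50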;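 further: 0% = plate neutral controls and 100% = maraviroc near 300 nM; one replicate is shown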
Rce1 inhib: yeast Rce1p protease inhibitors, primary screen, biochemical, fluorescence, cell-free homogeneous | yeast membranes, quenched prenylated peptide cleavage fluorescence | calls only | 0.27% of 290,000 active;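 active means fall in fluorescence gain of 50% or more versus controls, with final raw signal at or below 3038400; inconclusive means same 50% fall but final raw signal above 3038400; inactive means fall in fluorescence gain under 50%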;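 further: plate controls were neutral control wells for no effect and wells lacking membranes for full effect; tested at 10 µM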
Target sequence (Q03530 whole entry, looked up): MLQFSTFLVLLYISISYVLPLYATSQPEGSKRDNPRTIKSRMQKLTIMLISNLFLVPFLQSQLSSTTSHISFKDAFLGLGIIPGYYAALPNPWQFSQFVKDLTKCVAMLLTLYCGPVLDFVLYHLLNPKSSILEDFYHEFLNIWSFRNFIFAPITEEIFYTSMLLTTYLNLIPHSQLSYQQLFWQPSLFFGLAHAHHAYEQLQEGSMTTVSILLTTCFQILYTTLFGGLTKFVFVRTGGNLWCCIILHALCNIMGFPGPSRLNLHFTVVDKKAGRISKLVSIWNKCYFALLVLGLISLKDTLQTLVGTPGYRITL
MT1-MMP act inh: blockers of MT1-MMP proenzyme processing, primary screen, HT1080 RFP-PRO-GFP cells, GFP/RFP fluorescence | Matrix metalloproteinase-14 (Homo sapiens), P50281 | GFP/RFP ratio fluorescence, overnight; percent of plate control window, DMSO zero | GFP/RFP ratio change, % at 20 µM | 0.061% of 360,000 active | AID 651647, 2012;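 active means GFP/RFP ratio change of at least 30% with cell ATP level not reduced by more than half and red fluorescence within 50% of control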; further: strong numbers were not always called active
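Assay system: HT1080 cells carrying an RFP-PRO-GFP reporter | Dosing: Single dose of 20 µM compound, 1% DMSO final | Incubation: Cells overnight before dosing, compound overnight, 37 °C, 5% CO2 | Evaluation: GFP/RFP fluorescence ratio | Control set: DMSO and RFP-L50D-GFP cell wells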
CSC inhib: cancer stem cell viability inhibitors, primary screen, luminescence | 1.1% of 300,000 active | cancer stem cell-like cells viability | inhibition, % at 7.5 µM;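 active means mean at 75% or more and at least half the replicates too; inconclusive means mean and replicates disagree; tested in HMLE shEcad cells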;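 further: 0% = median of negative and 100% = median of positive control wells; the first replicate is given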
eIF4H FP inh: human eIF4H binding inhibitors, primary screen, translation initiation inhibitor project, biochemical, uHTS, fluorescence polarization. Eukaryotic translation initiation factor 4H (Homo sapiens), Q15056. eIF4H fluorescence polarization binding assay. inhibition, % at 35 µM. 0.94% of 290,000 active. AID 2012, 2009;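 active means 50% or more with normal probe brightness, or confirmed in later tests; inconclusive means above 50% with abnormal brightness, or retests that disagree; inactive means below 50% or failed in later tests; about a fifth of its hits are not listed in these tables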;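 further: calls also rest on retests at 20 µM and on dose response follow-up; 0% = protein and probe with vehicle and 100% = probe without protein; strong numbers were not always called active; many hits fall short of the cut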
UUG fidelity: modulators of yeast start codon fidelity, primary screen, whole organism, S. cerevisiae, single point, plate reader. activity score, % at 18.7 µM. 0.13% of 350,000 active. S. cerevisiae UUG-firefly luciferase reporter, luminescence/redox ratio;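 active means replicate mean at a twofold rise or more, about +100% in these data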;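 further: firefly luciferase made from a UUG start codon reports start codon fidelity; reporter light over untreated wells divided by growth signal over untreated wells; some hits fall short of that in this replicate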
eIF4H FP inh retest: further read-out of eIF4H FP inh, marked with its call; inhibition, %; compound at 20 µM; confirmation average;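 mean of two retest wells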
PABP FP inh retest: recorded beside PABP FP inh, whose call it bears; inhibition, %; compound at 20 µM; confirmation repeats;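 mean of two retest wells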
MT1-MMP act inh RFP: second read-out of MT1-MMP act inh, no call of its own (marks repeat the call); RFP signal change, %; measured here: RFP expression control read;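 0 = vehicle wells; hits needed this value within 50% of zero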
* hit, by the source's call; i = inactive; ? = inconclusive; / = not tested or not shown.

SMILES	PABP FP inh	Env fusion inh	Rce1 inhib	MT1-MMP act inh	MT1-MMP act inh RFP	CSC inhib	eIF4H FP inh	UUG fidelity	others
Cc1ccc2c(NC(=O)c3ccc(Br)o3)cccc2n1	7	-13	i	1	5	-11	-6	-14
COc1cccc2c1CCC1=CC(=O)CCC12C (configuration not stated)	/	-21	/	-3	-1	/	/	-10
CC(=O)Nc1ccc(S(=O)(=O)NCCC(=O)OCC(=O)NNC(=O)c2ccccc2)cc1	/	1	i	5	4	-14	/	/
CN(C)c1cc(Nc2cccc(O)c2)c([N+](=O)[O-])c2nonc12	5	0	i	-6	-14	/	-11	-25
CCN(Cc1ccccc1)C(=O)c1nn(-c2ccc(OC)cc2)c(=O)c2c1c1ccccc1n2C	-4	-10	i	-1	-9	-6	8	/
CCN(Cc1ccccc1)S(=O)(=O)c1c(N)n(C)c(=O)n(C)c1=O	-13	-3	i	8	1	5	3	-10
CCOc1cc(NC(=S)NCCCN2CCOCC2)c(OCC)cc1NC(=O)c1ccccc1	4	33	i	3	4	2	-6	-27
O=C(COc1ccc(Cl)cc1)NCCS(=O)(=O)N1CCN(c2ccccc2F)CC1	-5	0	i	4	0	-15	-21	-7
CCOc1ccc(NC(=O)C2CCCN(S(=O)(=O)c3ccc4c(c3)CCCN4C(C)=O)C2)cc1 (configuration not stated)	9	0	i	0	-9	-13	-4	-12
O=C(NCc1ccccc1)/C(=C/c1ccc([N+](=O)[O-])cc1)NC(=O)c1ccco1	-8	2	i	-1	3	-17	6	-16
CC(NC(=O)c1ccccc1N)c1ccccc1 (configuration not stated)	7	-7	i	2	4	3	-1	/
COc1cccc(-n2c([S-])c(C(=O)Nc3ccc(S(=O)(=O)N4CCOCC4)cc3)[n+]3cc(C(N)=O)ccc23)c1	20	-3	i	-16	-6	6	59	-16	eIF4H FP inh retest=31;PABP FP inh retest=8
COc1ccc(-c2[nH]ncc2/C=N\NC(=O)c2cccs2)cc1OC	-2	5	i	1	3	0	-11	-10
COc1ccc(NC(=O)N(C)C[C@H]2Oc3c(NC(=O)NC(C)C)cccc3C(=O)N([C@H](C)CO)C[C@@H]2C)cc1	/	19	/	2	6	8	/	-2
CC1CC(c2ccccc2)n2nc(NC(=O)c3cccs3)nc2N1 (configuration not stated)	-4	/	i	0	5	6	-3	-24
CCN(CC(=O)Nc1ccc2c(c1)OCCO2)C(=O)c1cccc(S(=O)(=O)N2CCOCC2)c1	16	-54	i	-2	3	3	-6	-15
O=C(CSc1nccc2ccccc12)N1CCN(c2ccccn2)CC1	-6	-23	i	1	3	-4	-3	-6
CC(=O)Oc1ccc(N2C(=O)C3C4C=CC(C5CC45)C3C2=O)cc1[N+](=O)[O-] (configuration not stated)	-4	-4	i	5	5	/	1	/
COc1cccc(C2CC(=O)Nc3cc(OC)c(OC)c(OC)c32)c1OC (configuration not stated)	-6	/	i	4	10	-15	-6	/
CCOC(=O)c1nnn(-c2nonc2-n2cccc2)c1C	1	/	i	1	2	-8	2	10
Cc1nc2ccccc2n1/N=C/c1ccc([N+](=O)[O-])s1	-4	14	i	-23	-31	47	2	/
Cc1ccccc1C(=O)Nc1nnc(-c2ccc(C(C)(C)C)cc2)s1	2	-28	i	1	3	-4	2	-17
COC(=O)C1CN(S(=O)(=O)c2cc(OC)ccc2OC)CCS1 (configuration not stated)	7	15	i	0	3	-15	1	12
N#Cc1nc(Cc2cccc3ccccc23)oc1NCCN1CCCCC1	-2	-8	i	-6	3	-1	-6	0
O=C(CCn1cccn1)N1CCCC(Nc2ccc(F)c(F)c2)C1 (configuration not stated)	/	-9	/	1	2	/	/	-12
CCN(CC(=O)NCc1ccc(Cl)cc1)C(=O)CSc1cccc(C(F)(F)F)c1	/	24	/	-3	-6	0	/	/
Clc1ccc(C=NC23CN4CN(CN(C4)C2)C3)cc1	-4	/	i	-3	-1	1	-8	-1
CCC(=O)n1nc(-c2cccnc2)nc1NCc1ccc(OC)cc1	-9	/	i	0	5	-10	-6	-2
Cc1cccc(N2C(=O)C(Oc3ccc(Cl)cc3Cl)C2C(=O)O)c1C (configuration not stated)	4	-19	i	5	3	6	9	-26
CCN1CCN(c2nc3c(c(=O)[nH]c(=O)n3C)n2Cc2cccc(C)c2)CC1	/	-15	/	3	3	/	/	-3
Cc1ccccc1Cn1cc(NC(=O)c2nn(C)cc2Cl)cn1	0	-3	i	2	4	-4	2	-4
O=[N+]([O-])c1ccc(S(=O)(=O)NN=Cc2ccc(Cl)c(Cl)c2)cc1	/	-15	/	2	5	/	/	-8
CN(C)CCN(C)Cc1c2ccccc2c(CN(C)CCN(C)C)c2ccccc12	?	-10	i	-47	-9	8	?	7
Cc1ccc(NC(=O)Cc2noc3ccccc23)nc1	35	4	i	-1	4	0	-4	/
Cc1cc(Nc2ccc3c(c2)OCCO3)c2cccc(C)c2n1	27	-3	i	11	5	-1	-1	-13
CCC(C)(C)NC(=O)C(c1cccc(OC)c1OC)N(Cc1ccccc1)C(=O)CCC(=O)Nc1cc(C)on1 (configuration not stated)	5	13	i	-1	1	/	-7	3
COc1ccc(N2CC(NS(=O)(=O)c3cccs3)CC2=O)cc1 (configuration not stated)	/	-1	i	2	3	-9	/	/
Cc1ccccc1-c1noc(CCC(=O)NCc2ccco2)n1	2	3	i	-1	0	3	7	-7
CC(=O)Nc1ccc2[nH]c(C)c(CC=C(Cl)Cl)c(=O)c2c1	-13	-15	i	1	-1	-1	-12	-25
CSc1ccc(Cl)c(C(=O)NCc2ccco2)c1	-1	/	i	4	2	-7	4	-19
CC1(C)Cc2c(c(=S)nc(-c3ccccc3)n2CCOCCO)CO1	-5	/	i	6	8	-2	0	-13
CC(=O)N1CCN=C1SCc1ccccc1Cl	-4	5	i	-1	3	0	9	-18
Cc1ccc2c(c1)CCCO[C@]21O[C@H](CCO)C[C@H](O)[C@H]1O	/	-33	/	3	4	/	/	-5
Clc1ccc(CSc2nnc(/C=C/c3ccccc3)o2)cc1	-3	/	i	11	4	3	-6	1
Cc1ccc(S(=O)(=O)N2CCN(C(=O)c3cc(=O)[nH]c4ccccc34)CC2)c(C)c1	0	-1	i	-6	-5	9	-14	-6
CCn1cnc2c1c(=O)n(Cc1cccc([N+](=O)[O-])c1)c(=O)n2Cc1ccccc1	-4	0	i	-1	-2	/	-2	-4
CC(=O)c1ccccc1NC(=O)c1ccc2c(c1)NC(=O)C(C)S2 (configuration not stated)	/	-105	i	3	-2	4	/	/
COc1ccc(NC(=O)CNCCC2=CCCCC2)cc1	-2	60*	i	-3	0	-12	6	-7
COc1ccc(OCCn2c(NC(=O)c3ccco3)nc3ccccc32)cc1	-1	/	i	-6	-10	16	13	-24
O=C(CSc1cccc2cccnc12)Nc1ccccc1F	10	15	i	-3	-3	1	-12	-15
COc1ccc(C(CCN2CCCC(C)C2)c2c(OC)cc(OC)c3c2OC(=O)CC3c2cc(OC)c(OC)c(OC)c2)cc1 (configuration not stated)	-16	/	i	5	5	-10	-7	-13
O=C(NC1CC1)C1CCN(c2ccc(S(=O)(=O)N3CCOCC3)cc2Cl)CC1	7	-53	i	8	1	-9	-3	/
COc1ccc([C@@H]2C[C@@H](c3ccccc3)Oc3cc(OC)c(OC)c(OC)c32)cc1	4	-24	i	-4	-4	/	-9	-19
Cc1c(C(=O)N2CCN(CCc3ccccn3)CC2)oc2ccc(F)cc12	15	-1	i	-2	-1	-5	-3	-8
CCOCCCNC(=S)N1C2CCC1CC(NC(=O)NC1CCCCC1)C2 (configuration not stated)	6	/	i	0	-2	-4	-5	-11
Cc1ccc(-c2c(C#N)c(N)nc3c2CCCCCC3)o1	10	-7	i	-6	-3	-10	4	-17
O=C(C1CCN(Cc2ccc(F)cc2)CC1)N(CCO)Cc1ccccc1	7	-18	i	0	4	-8	-8	-12
CC/C(C)=C1\SC(N2CCOCC2)=NC1=O	0	/	i	5	3	-3	4	-2
Cc1ccc(NS(=O)(=O)c2ccc(Cl)s2)cc1S(=O)(=O)N(C)C	-3	10	i	-3	-3	7	4	/
COc1ccccc1Nc1nc(N)nc(CN(C)C2CCCCC2)n1	-13	-3	/	-9	-9	-11	-6	-29

Further structures:
SMILES	PABP FP inh	Env fusion inh	Rce1 inhib	MT1-MMP act inh	MT1-MMP act inh RFP	CSC inhib	eIF4H FP inh	UUG fidelity	others
O=C(COc1ccc([N+](=O)[O-])cc1Cl)NCCN1C(=O)CSC1=O	/	/	/	-4	-1	-24	/	-16
CCn1cc(C(=O)NCCC(C)C)c(=O)c2cc(F)c(N3CCN(C(=O)c4ccco4)CC3)cc21	-8	6	i	2	-13	29	-10	-8
CCN1CCN(C(=O)CN2C(=O)c3cccc4cccc2c34)CC1	0	/	i	5	6	-6	9	-21
C/C(=N\NC(=O)Cc1c(C)[nH][nH]c1=O)c1ccc(Cl)c(Cl)c1	-11	5	/	2	-2	-5	-15	-19
COc1ccc(N2CCN(C(=O)CNC(=O)Cn3cnc4sc(C)c(C)c4c3=O)CC2)cc1	1	1	i	1	-7	-17	-8	-23
CCOC(=O)c1ccc(NC(=O)CN(c2ccc(C)cc2)S(=O)(=O)c2c(C)n[nH]c2C)cc1	3	/	i	0	-7	1	-2	-12
COCCN1C(=O)C(=O)/C(=C(/O)c2ccc(S(=O)(=O)N3CCOCC3)cc2)C1c1cccc(O)c1 (configuration not stated)	7	12	i	2	-1	-8	-5	-8
O=C(NC(=S)Nc1nc(-c2ccc(Br)cc2)cs1)c1cccnc1	0	-42	i	5	0	-2	0	/
CCNC(=O)N(CC)C[C@H]1N[C@@](CC)(C(=O)OC)[C@H]2C(=O)N(Cc3ccccc3)C(=O)[C@@H]12	/	-3	/	2	6	/	/	-25
COc1ccc(CSc2nnc(SCc3ccc([N+](=O)[O-])cc3)s2)cc1	6	11	i	-4	-1	-1	21	-19
Cc1ccc(S(=O)(=O)N2CCN(S(=O)(=O)N3CCCCC3)CC2)cc1	-2	-52	i	7	15	-15	-12	/
Cc1ccccc1NC(=O)c1ccc(COc2ccc3c(C)cc(=O)oc3c2)cc1	7	-7	i	2	4	27	-6	-1
CCCCN(C(=O)NC(=O)Nc1ccccc1OC)S(C)(=O)=O	13	/	i	6	1	-8	5	-17
CC(=O)N1CCc2cc(S(=O)(=O)CCC(=O)N3CCC(C)CC3)ccc21	2	-11	i	2	-1	-9	-6	-9

Ordered by SMILES length (descending): part of the list above.
SMILES	PABP FP inh	Env fusion inh	Rce1 inhib	MT1-MMP act inh	MT1-MMP act inh RFP	CSC inhib	eIF4H FP inh	UUG fidelity	others
CCNC(=O)N(CC)C[C@H]1N[C@@](CC)(C(=O)OC)[C@H]2C(=O)N(Cc3ccccc3)C(=O)[C@@H]12	/	-3	/	2	6	/	/	-25
CCn1cc(C(=O)NCCC(C)C)c(=O)c2cc(F)c(N3CCN(C(=O)c4ccco4)CC3)cc21	-8	6	i	2	-13	29	-10	-8
O=C(COc1ccc([N+](=O)[O-])cc1Cl)NCCN1C(=O)CSC1=O	/	/	/	-4	-1	-24	/	-16
CCCCN(C(=O)NC(=O)Nc1ccccc1OC)S(C)(=O)=O	13	/	i	6	1	-8	5	-17

Assay outcomes from PubChem BioAssay.

Not all compounds are listed. The share of hits here may be higher or lower than overall.
